# StopGo reporter: FMDV 2A StopGo reporter, luciferase signal; AID 1159524; human cells with a luciferase reporter of 2A StopGo recoding; control for the full effect not named in the record; Potency, µM (highest dose often 57.9 µM), for inactives: at the highest dose signal change, negative = less light; 410,000 tested, 1.2% active; active = well fitted falling curve with a large enough effect; inconclusive = small, poorly fitted or top-dose-only effect; inactive = no such curve, though single readings can be large or run the other way; tested in HEK293T cells; further: on the % scale 0 is the no-effect control and ±100 the full control effect; nearly all actives have a fitted effect of over 45% in size; luciferase light after 4 h
# LASV entry inh: Lassa virus entry inhibition; Lassa virus pseudotype entry inhibition, cell reporter; control for the full effect not named in the record; Potency, µM (titrated, usually from 37.9 µM), without a hit: top-dose activity change, negative = inhibition, most hits filed as inhibitors; 300,000 tested, 1.2% active; AID 540256; active means well fitted inhibition curve with a large enough effect; inconclusive means small, poorly fitted or top-dose-only effect, or effect the other way; inactive means flat fitted curve, though single readings scatter; tested in HEK293 cells; further: on the % scale 0 is the no-effect control and ±100 the full control effect; nearly all actives have a fitted effect of over 50% in size; luciferase read-out
# RE007 growth inh: less growth of the S. pombe RE007 Vpr strain | 360,000 tested, 0.21% active | Potency, µM (series often up to 92.2 µM), inactives show at the top dose activity change, negative = less growth | S. pombe RE007 Vpr strain, BacTiter-Glo ATP luminescence, 24 h; control for the full effect not named in the record; active = well fitted falling curve with a large enough effect; inconclusive = small, poorly fitted or top-dose-only effect; inactive = no such curve, though single readings can be large or run the other way;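 further: on the % scale 0 is the no-effect control and ±100 the full control effect; nearly all actives have a fitted effect of over 50% in size; the assay follows cell death caused by Vpr and the record does not say whether a fall means rescue or toxicity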
#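 Fission yeast RE007 carrying one integrated HIV-1 vpr copy, seeded at OD 0.01 in PMG+AL medium with 23 nL pinned compound. Grown 24 h at 30 degrees; viability read by BacTiter-Glo luminescence after 5 min.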
# NS1 function inh: inhibitors of influenza NS1 protein function; S. cerevisiae slowed by influenza A NS1, growth recovery by OD600; Potency, µM (doses to about 46.1 µM), for inactives: top-dose activity, positive = more growth; 270,000 tested, 0.4% active; AID 2326; active means well fitted rising curve with a large enough effect; inconclusive means small, poorly fitted or top-dose-only effect; inactive means no such curve, though single readings can be large or run the other way; further: nearly all actives have a fitted effect of over 50% in size
#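 OD600 was taken as the measure of yeast growth restored by compound in an NS1-expressing S. cerevisiae strain. Cells had been washed out of glucose medium and diluted 1:100 into galactose -URA medium, pH 6.0.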
# Cruzain noTriton: cruzain (T. cruzi) inhibition without detergent; P25779; purified cruzain, Z-FR-AMC fluorescence, no detergent; Potency, µM, without a hit: max response, negative = inhibition, usual class: inhibitors; 200,000 tested, 2.3% active;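 further: plate controls were enzyme without inhibitor for no effect and buffer without enzyme for full effect; nearly all actives have a fitted effect of over 40% in size; top concentration of the series not given in the record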
# Target sequence (P25779 123-467 limits assumed): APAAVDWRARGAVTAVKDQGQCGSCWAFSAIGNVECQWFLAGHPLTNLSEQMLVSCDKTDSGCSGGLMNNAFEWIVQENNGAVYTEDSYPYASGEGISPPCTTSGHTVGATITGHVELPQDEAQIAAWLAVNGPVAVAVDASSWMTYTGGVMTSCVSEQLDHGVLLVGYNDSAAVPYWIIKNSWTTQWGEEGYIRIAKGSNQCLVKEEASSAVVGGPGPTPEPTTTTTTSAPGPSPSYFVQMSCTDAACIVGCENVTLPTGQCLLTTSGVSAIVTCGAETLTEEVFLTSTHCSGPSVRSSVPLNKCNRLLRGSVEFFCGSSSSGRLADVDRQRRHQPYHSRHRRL
#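 Detergent-free condition (0.00005% Triton X-100) in acetate buffer pH 5.5 with DTT. 1.5 nM enzyme and compound were pre-mixed 15 min, then 2 uM Z-FR-AMC substrate added; reaction progress from fluorescence change between first and third reads (60 s).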
# SARS PLP yeast: blocks SARS-CoV papain-like protease in a yeast assay; 330,000 tested, 0.19% active; Potency, µM (doses to about 32.9 µM), inactives show at the top dose activity, positive = growth rescue; S. cerevisiae expressing SARS-CoV PLpro, growth rescue; control for the full effect not named in the record; active means well fitted rising curve with a large enough effect; inconclusive means small, poorly fitted or top-dose-only effect; inactive means no such curve, though single readings can be large or run the other way; further: 0% is about no effect; nearly all actives have a fitted effect of over 55% in size; growth read by luminescence after 48 h
# MARV entry inh: blocks Marburg virus binding to or entry into cells; Marburg virus pseudotyped entry inhibition, cell reporter; control for the full effect not named in the record; about a third of the inactives were read at about 46 µM; 300,000 tested, 1.8% active; Potency, µM (highest dose often 37.8 µM), without a hit: top-dose activity change, negative = inhibition, hits mostly inhibitors; active = well fitted inhibition curve with a large enough effect; inconclusive = small, poorly fitted or top-dose-only effect, or effect the other way; inactive = flat fitted curve, though single readings scatter; tested in HEK293 cells; about a fifth of its hits are not listed in these tables; further: on the % scale 0 is the no-effect control and ±100 the full control effect; luciferase read-out
# Cruzain inh Det: blocks cruzain activity in presence of Triton detergent; P25779; purified cruzain, Z-FR-AMC fluorescence, 0.01% Triton; Potency, µM, without a hit: max response, negative = inhibition, hits mostly inhibitors; 200,000 tested, 0.43% active; AID 1478;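 further: plate controls were neutral wells for no effect and buffer without enzyme for full effect; nearly all actives have a fitted effect of over 40% in size; top concentration of the series not given in the record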
#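 Read-out: AMC fluorescence (360 nm excitation, 450 nm emission), four reads over 2 min, first-to-third difference used. Conditions: cruzain 1.5 nM, Z-FR-AMC 2 uM, pH 5.5 acetate, 5 mM DTT, 0.01% Triton X-100.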
# Active calls of the source: *; u = inconclusive; x = not tested or not shown; & = joins results of further samples; [ ] = another dose, or the depositor's remark. Unless noted, the call rests on the fitted dose curve; in most records, active means well fitted curve in the direction sought with a large enough effect; inconclusive means small, poorly fitted or top-dose-only effect, or another doubt; inactive means no such curve, though single readings can be large; an effect the other way counts as inactive or inconclusive. Potency means the concentration at half of the fitted maximal effect.
SMILES,StopGo reporter,LASV entry inh,RE007 growth inh,NS1 function inh,Cruzain noTriton,SARS PLP yeast,MARV entry inh,Cruzain inh Det
CC(NS(C)(=O)=O)C(c1cccs1)N1CCN(C)CC1 (stereo not drawn),13%,14%,0%,1%,10%,3%,0%,3.4%
O=C(c1ccco1)N1CCC(c2nc3ccccc3[nH]2)CC1,8%,-4%,-8%,x,x,1%,3%,x
CC(C)(C)N(Cc1cc2ccccc2[nH]c1=O)C(=O)C1CCCCC1,0%,3%,15%,9%,7%,26%,u,8.7%
CCC(NC(=O)NCc1ccc2c(c1)OCO2)(C(F)(F)F)C(F)(F)F,u,3%,-4%,-4%,1%,0%,-4%,2.1%
CCOc1ccccc1CNC(=O)c1ccc2c(c1)nc1n2CCC(C)C1 (stereo not drawn),36%[activator],2%[46.1 µM],x,x,-10%,x,x,5.1%
Cn1c(=O)c2c(nc(CN3CCCCC3)n2CCc2ccccc2)n(C)c1=O,-19%,-3%,0%,-9%,-9%,12%,3%&3%,-2.7%
CCOC(=O)C1=c2s/c(=C\c3cccnc3)c(=O)n2C(N)=C(C(=O)OC)C1c1cccnc1 (stereo not drawn),u,-10%,10%,7%,14%,-3%,4%,-7.5%
CC(C)C[C@@H](CN=[N+]=[N-])N1CCN(CC(C)C)CCC1=O,-14%,x,-3%,14%,x,4%,x,x
Cc1nnc(SCC(=O)NCc2ccccc2)n1-c1ccccc1,-10%,-1%,-29%,-8%,-10%,13%,-1%[46.1 µM],5.0%
Cc1ccc(NC(=S)N(CCN(C)C)C(C)c2cccnc2)c(C)c1 (stereo not drawn),5%,17%,-1%,x,x,-1%,9%[46.1 µM],x
CC(=O)c1c(C)[nH]c(C(=O)Nc2ccc(C)c(S(=O)(=O)N(C)C)c2)c1C,32%[activator],-22%,-12%,x,x,-2%,u,x
Fc1ccc(C2=Nc3cccc4cccc(c34)N2)cc1,19%,x,6%,4%,x,1%,x,x
O=C(COc1ccc(Cl)cc1)N1CCN(Cc2ccccc2)CC1,x,u,-17%,-15%,-9%,2%,u,-7.9%
COc1ccc(-n2nnnc2SCC(=O)c2ccc3c(c2)OCCO3)c(OC)c1,u,-7%,6%,9%,u,17%,-29%,0.3%
COc1cc(OC)c(C2=NOC(C(=O)N3CCN(C(=O)c4ccco4)CC3)C2)cc1Cl (stereo not drawn),-12%,-10%,14%,-3%,x,0%,-5%,x
CC(=O)NC(Cc1ccc(F)cc1)C(=O)NC1CCN(c2nnnn2-c2ccccc2)CC1 (stereo not drawn),-22%,5%,-20%,-4%,26%,2%,-5%,-2.6%
Cc1ccc2c(c1)-c1c(cnn1CC(=O)N1CCN(c3cc(C)ccc3C)CC1)CO2,u,x,x,x,-5%,x,6%[46.1 µM],0.4%
CCOc1ccc(C2C(C(=O)O)c3ccccc3C(=O)N2CCN2CCOCC2)cc1 (stereo not drawn),15%,-15%,-22%,2%,9%,3%,4%,4.3%
Cc1cccc(N=CC=C2OC(C)(C)C(C)(C)O2)c1,22%,0%,-13%,-2%,12%,22%,u,-2.4%
COC(=O)c1c(NC(=O)CN2CCN(S(=O)(=O)c3ccccc3[N+](=O)[O-])CC2)sc2c1CCC(C)C2 (stereo not drawn),-14%,-18%,6%,18%,10µM*,11%,u,1.4%
Cc1ccc(N(C(=O)Cc2c[nH]c3ccccc23)C(C(=O)NC2CCCCC2)c2ccco2)cc1 (stereo not drawn),u,u,-3%,5%,2%,-4%,u,-2.1%
OCC1(Cc2ccccc2F)CCCN(Cc2c(F)ccc(F)c2F)C1 (stereo not drawn),u,0%,-12%,-7%,x,3%,u,x
COc1ccc(-c2ccc3nnc(SCC(N)=O)n3n2)cc1,0%,-7%,9%,x,x,-2%,-20%[46.1 µM],x
O=C(NCCc1ccccc1)c1ccc(Cl)c([N+](=O)[O-])c1,39%[activator],4%,6%,-38%,-20%,-14%,3%,-7.1%
CC(=O)c1ccc(-n2cc(C#N)c(=O)[nH]c2=O)cc1,5%,x,12%,1%,x,-2%,x,x
O=[N+]([O-])c1cccc(-c2ccc(/C=N/n3c(-c4ccccc4)n[nH]c3=S)o2)c1,-12%,12%,7%,9%,16µM*,7%,4%,-4.1%
CCOC(=O)c1c(-c2ccccc2)csc1NC(=O)/C(C#N)=C/c1ccc(OC)c(OC)c1,0%,10%,-16%,28%,4%,-28%,-10%,-4.3%
CN(C)c1ccc(C(CNS(=O)(=O)c2ccc(F)cc2)N2CCc3ccccc32)cc1 (stereo not drawn),-8%,17%[46.1 µM],x,x,-23%,x,x,-6.9%
CN(C)c1nc2c(N)ncnc2n1C1OC(CO)C(O)C1O (stereo not drawn),-6%,0%,2%,x,x,x,17%,x
O=C(CN1C(=O)C(=O)N(Cc2ccccc2)C1=O)Nc1ccc(OC(F)F)cc1,-19%,4%,9%,x,x,-6%,27%,x
CCN(c1cccc(C)c1)S(=O)(=O)c1nnc(NC(=O)c2ccco2)s1,6%,28%[46.1 µM],2%,-4%,x,2%,16%[46.1 µM],x
O=C(O)c1cc(-c2ccc(Cl)cc2)n[nH]1,-5%,13%,8%,3%,-2%,5%,-4%,6.3%
O=C(CNC(=O)c1ccccc1)NCCO,0%,13%[46.1 µM],16%,x,x,2%,11%[46.1 µM],x
CCN(CC)c1ccc(NC(=O)c2cncc(Br)c2)cc1,37%[activator],0%,-24%,-9%,-6%,2%,4%[46.1 µM],-0.2%
O=C(Nc1ccc(F)cc1F)c1ccc(-n2cccn2)c([N+](=O)[O-])c1,-5%,-1%,0%,-4%,x,-1%,-4%[46.1 µM],x
CC1CN(c2ncnc3c2c(-c2ccccc2)cn3-c2ccc(F)cc2)CC(C)O1 (stereo not drawn),u,u,4%,x,x,-21%,u,x
COc1ccccc1C(=O)NC(=O)COC(=O)/C(=C/c1ccccc1)NC(C)=O,-12%,-4%,-18%,-1%,x,u,10%,x
Cc1ccc2nc(Nc3nc(-c4ccccc4)cc(=O)[nH]3)nc(C)c2c1,0%,-10%,2%,12%,u,3%,u,0.0%
CN(C)CCNC(=O)C1CC(=O)N(c2ccc(F)c(Cl)c2)C1 (stereo not drawn),9%,24%,0%,8%,0%,12%,18%,3.9%
Oc1ccc(/C=N/Nc2cc(N3CCOCC3)nc(N3CCOCC3)n2)cc1O,u,6%,-18%,u,-11%,-5%,u,-11%
CC(C)N1CCN(Cc2nc3ccccc3s2)CC1CCO (stereo not drawn),17%,8%,27%,2%,x,0%,10%[46.1 µM],x
O=C(OCCCc1ccncc1)c1ccc(S(=O)(=O)N2CCOCC2)cc1,x,10%,0%,-4%,3%,1%,-2%,0.0%
O=C(CSC(=S)N1CCOCC1)Nc1nc(=O)c2ccccc2s1,x,u,x,8%,0%,1%,7%,-2.7%
O=C(O)CC(NCc1ccco1)C(=O)Nc1cccc(O)c1 (stereo not drawn),46%[activator],-14%,3%,-3%,x,-3%,-12%[46.1 µM],x
COc1cc(C2Nc3ccccc3C(=O)N2NS(C)(=O)=O)ccc1O (stereo not drawn),13%,x,-11%,5%,x,0%,x,x

# The last 6 entries of the part before open the next one.
SMILES,StopGo reporter,LASV entry inh,RE007 growth inh,NS1 function inh,Cruzain noTriton,SARS PLP yeast,MARV entry inh,Cruzain inh Det
Oc1ccc(/C=N/Nc2cc(N3CCOCC3)nc(N3CCOCC3)n2)cc1O,u,6%,-18%,u,-11%,-5%,u,-11%
CC(C)N1CCN(Cc2nc3ccccc3s2)CC1CCO (stereo not drawn),17%,8%,27%,2%,x,0%,10%[46.1 µM],x
O=C(OCCCc1ccncc1)c1ccc(S(=O)(=O)N2CCOCC2)cc1,x,10%,0%,-4%,3%,1%,-2%,0.0%
O=C(CSC(=S)N1CCOCC1)Nc1nc(=O)c2ccccc2s1,x,u,x,8%,0%,1%,7%,-2.7%
O=C(O)CC(NCc1ccco1)C(=O)Nc1cccc(O)c1 (stereo not drawn),46%[activator],-14%,3%,-3%,x,-3%,-12%[46.1 µM],x
COc1cc(C2Nc3ccccc3C(=O)N2NS(C)(=O)=O)ccc1O (stereo not drawn),13%,x,-11%,5%,x,0%,x,x
CC(C)(C)CC(=O)Nc1nnc(C(F)(F)F)s1,-8%,2%,5%,-5%,1%,-6%,16%,-4.2%
COc1ccccc1N1CCN(c2nc3c(S(=O)(=O)c4ccccc4)nnn3c3ccc(Cl)cc23)CC1,21%,x,x,x,u,x,16%[46.1 µM],-1.2%
O=C(OCc1cc([N+](=O)[O-])cc2c1OCOC2)c1cccnc1SC(F)F,-16%,1%,13%,x,x,-1%,-1%,x
CC(C)CCNC(=O)Cc1ccccc1[N+](=O)[O-],x,9%,0%,6%,-1%,-2%,23%,3.7%
Cc1ccc(NNC(=O)c2ccno2)cc1Cl,-19%,x,25%,-62%,x,-6%,x,x
CCOC(=O)C1=C(N)OC2=C(C(=O)CCC2)C1c1cccs1 (stereo not drawn),x,25%,4%,-12%,8%,-1%,0%,2.1%
Cc1ccc(/C=C2\C(=O)NC(=S)N(c3ccc(F)cc3)C2=O)o1,32µM*,x,-10%,8%,x,0%,x,x
COc1ccc(-n2nnnc2-c2cnc3cc4c(cc3c2C)OCO4)cc1,u,-6%,-8%,-3%,7%,2%,-11%,0.9%
COc1ccccc1C(=O)NC(=O)COC(=O)c1ccc(C)o1,-12%,0%,3%,x,x,-3%,3%[46.1 µM],x
CCCOC(=O)CSc1nc(N)c(C#N)c(CC)c1C#N,-12%,-9%,3%,2%,1%,-5%,7%[46.1 µM],-7.5%
